Mtb bLac sens – beta-lactam sensitization of Mtb H37Rv | M. tuberculosis H37Rv growth with meropenem, percent inhibition; hits of this screen are not shown here | inhibition, % at 25 µM | 330,000 tested, 0.27% active;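 active means about 74% or more and at least 40 points above the plate without the antibiotic, then above 30% in a dose series; inconclusive means first-round hits that could not be retested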;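 further: growth measured after seven days incubation then overnight dye step; 0% = bacteria only wells and 100% = bacteria with antibiotic; twin plates without the antibiotic show which effects depend on it; some results filed as inactive read as strong as hits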
Mtb growth – M. tuberculosis H37Rv growth inhibitors, H37Rv strain (AID 1626); inhibition, % at 10 µM; hits with a dose series show IC50 in µM; 220,000 tested, 0.95% active; M. tuberculosis H37Rv growth inhibition; higher % means a stronger effect;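 active means confirmed in a dose series; inconclusive means inhibition above 80% but not taken into the dose series; inactive means below 80% or under 30% at every dose of the series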;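 further: bacteria incubated seven days before Alamar blue readout; 0% = bacteria only wells and 100% = bacteria with antibiotic wells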
Arbovirus anti – antivirals against arbovirus infection; arbovirus infection cell-based antiviral screen; inhibition, % at 10 µM; 200,000 tested, 0.37% active; AID 1251;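 active means inhibition from about 30%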;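 further: bluetongue infection of BSR cells; cell survival read as ATP light after 72 h; 0% = infected wells without compound and 100% = uninfected wells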
YopH inh – inhibitors of Yersinia enterocolitica YopH tyrosine phosphatase. fluorescence Ex485/Em525. inhibition, %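 (about 10 µM by stock and volumes)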. 140,000 tested, 0.16% active. AID 898;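 active means inhibition of 50% or more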;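 further: controls were vehicle for no effect and minimum signal wells for full effect; inactives centre near -20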
RecA intein inh – inhibitors of M. tuberculosis RecA intein splicing. inhibition, %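 (about 9 µM by stock and volumes)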. P9WHJ3. cell-free RecA intein splicing, fluorescence. 290,000 tested, 0.75% active; in the data active means inhibition above about 30%; inconclusive means no clear call, values can overlap the other calls;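 further: 0% = vehicle wells and 100% = reference inhibitor control wells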
Target sequence (P9WHJ3 whole entry, looked up): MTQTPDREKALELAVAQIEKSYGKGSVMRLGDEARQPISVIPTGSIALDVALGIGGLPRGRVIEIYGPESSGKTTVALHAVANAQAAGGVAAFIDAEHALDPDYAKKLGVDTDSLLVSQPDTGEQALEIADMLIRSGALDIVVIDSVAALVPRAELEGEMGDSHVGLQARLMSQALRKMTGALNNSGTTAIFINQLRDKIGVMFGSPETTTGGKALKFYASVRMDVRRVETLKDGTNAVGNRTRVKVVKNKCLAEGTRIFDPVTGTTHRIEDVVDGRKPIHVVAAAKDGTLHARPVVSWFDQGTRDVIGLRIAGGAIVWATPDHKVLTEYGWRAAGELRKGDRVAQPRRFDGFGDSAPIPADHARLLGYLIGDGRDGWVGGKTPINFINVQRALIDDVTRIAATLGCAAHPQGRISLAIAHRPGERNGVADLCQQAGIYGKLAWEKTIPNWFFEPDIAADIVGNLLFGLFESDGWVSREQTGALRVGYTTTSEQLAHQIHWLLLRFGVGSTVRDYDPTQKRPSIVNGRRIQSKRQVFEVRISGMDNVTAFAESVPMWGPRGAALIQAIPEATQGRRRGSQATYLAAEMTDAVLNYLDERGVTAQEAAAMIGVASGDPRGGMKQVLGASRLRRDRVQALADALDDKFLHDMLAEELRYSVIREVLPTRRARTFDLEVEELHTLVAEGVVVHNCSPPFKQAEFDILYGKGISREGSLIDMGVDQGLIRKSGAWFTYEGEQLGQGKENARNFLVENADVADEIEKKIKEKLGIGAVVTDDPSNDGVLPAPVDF
Arbovirus anti repeat – second read-out of Arbovirus anti, no call of its own (marks repeat the call); inhibition, %; measured here: 10K subset replicate screen; many hits read low in the repeat;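 first of two repeat runs on a subset; 0% = infected and 100% = uninfected wells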
* hit, by the source's call; ? = inconclusive; nt = no result given.

SMILES	Mtb bLac sens	Mtb growth	Arbovirus anti	YopH inh	RecA intein inh	others
CCOc1c2ccc(C(=O)NCc3ccc(C(F)(F)F)cc3C(F)(F)F)cc2nn1C	57.1	0.8%	-30.8	-42.2	1.2
Nc1nnc(SCC(=O)NC2CCCC2)s1	14.7	nt	nt	nt	-0.2
Cc1ccccc1OCC(=O)NC1CCCCCCC1	1.0	nt	nt	nt	4.4
Cc1cc(NC(=O)c2cc(-c3cccs3)nc3ccccc23)no1	-1.5	-2.9%	-5.1	-13.7	-1.2	Arbovirus anti repeat=-12.3
CCN(CC)CCN(C(=O)c1c(F)cccc1F)c1nc2cc(C)cc(C)c2s1	96.1	78.1%	-0.6	nt	11.6
O=C(Nc1ccnn1C1CCN(Cc2cccnc2)CC1)c1ccccc1Cl	-5.4	nt	nt	nt	-2.5
N#Cc1c(NC(=O)CN2CCN(S(=O)(=O)c3ccc4c(c3)OCCO4)CC2)sc2c1CCC2	-2.3	1.8%	-2.5	-7.0	nt
Oc1[nH]c(=S)sc1C=C1N=c2ccccc2=N1	-0.9	-6.7%	nt	nt	56.7*
O=S(=O)(NC1CCCCC1)c1ccc(-c2csnn2)s1	-5.9	-1.5%	4.9	-10.3	-0.2
NS(=O)(=O)c1ccc(NC(=O)COC(=O)CCc2ccc(S(=O)(=O)N3CCOCC3)cc2)cc1	-6.1	-6.7%	nt	nt	2.4
CCn1nnc(C(=O)O)c1C(=O)O	-2.1	3.0%	6.1	-50.6	-4.3
O=C(N/N=C/c1cccc(Oc2ccccc2)c1)c1ccccc1F	45.9	nt	nt	nt	3.4
Cc1cccc(NC(=O)CSCC(=O)Nc2ccc(S(=O)(=O)N3CCCC3)cc2)c1	-5.5	nt	nt	nt	2.3
O=C(CCCOc1ccc(Cl)cc1Cl)NCCc1ccccn1	-1.8	nt	nt	nt	2.8
CCN(C(=O)CSc1nnc2c3ccccc3n(CC)c2n1)C1CCS(=O)(=O)C1 (centres undefined)	-2.6	-2.5%	-13.0	10.0	-0.2
COc1ccc(S(=O)(=O)n2c(CCN3CCOCC3)nc3ccccc32)cc1	-4.0	-0.3%	6.4	-31.4	5.1
Nc1nccc(-c2ccc(-n3cnc4ccccc43)cc2)n1	-6.3	-1.1%	10.3	nt	-1.6
COc1ccc(OC)c(S(=O)(=O)Nc2cccc(-c3ccc4nncn4n3)c2)c1	-3.0	0.4%	8.1	nt	nt
COc1ccc(NC(=O)CN2CCN(c3nc(-c4cccc(OC)c4)cs3)CC2)cc1	83.2	-12.6%	-3.2	-11.5	1.0
O=C(N/N=C\c1ccco1)c1cncc(Br)c1	34.7	3.7%	0.5	-34.9	-3.0
NC(=S)N/N=C/c1c(O)ccc2ccccc12	22.2	10.7%	nt	nt	-3.8
CCCCOC(=O)n1c(=O)oc2cc(S(=O)(=O)N3CCCCC3)ccc21	?	3.4%	4.9	-9.2	10.5
CCOc1ccc2c(c1)C(c1ccc(C)cc1)=NNC(c1ccc(C)cc1)=N2	67.2	8.0%	-15.4	-7.1	1.4
Cc1ccc(NC(=O)NC2C(NC(=O)Nc3ccc(C)cc3)N(C)C(=O)N2C)cc1 (centres undefined)	-14.7	-6.5%	1.5	-4.1	-3.6
Cc1ccc(NC(=O)c2ccc(S(=O)(=O)N3CCCC3)cc2)nc1	1.3	nt	nt	nt	-3.3
CC(=O)c1ccc(-c2nnc(CCC(=O)N(C)Cc3c(C)nc4ccccn34)o2)s1	10.3	-4.2%	1.4	nt	-0.4
Cc1ccc(S(=O)(=O)N2CCC(=O)N(C(COCc3cccc(C(F)(F)F)c3)Cc3ccccc3)CC2)cc1 (centres undefined)	-0.4	7.2%	-4.4	-36.8	-0.2
COc1cc(NC(=O)c2cccc(F)c2)ccc1NC(=O)c1cc2ccccc2o1	6.3	nt	nt	nt	-6.5
CCCc1cc(=O)oc2cc(C)cc(OCC(=O)NCC(O)c3ccccc3)c12 (centres undefined)	3.3	nt	nt	nt	-1.3
CCOC(=O)c1ccc(NC(=O)NCc2c(C)nn(CC)c2C)cc1	-8.6	-1.1%	4.3	nt	-0.4
O=C(NCc1ccco1)c1ccccc1Br	-3.8	-5.8%	3.9	-7.4	0.7
Cc1csc(SCC(=O)NC(=O)NC(C)(C)C)n1	-2.0	-4.9%	4.6	nt	3.7
CN(C)CC(C)(C)CNS(=O)(=O)CC12CCC(CC1=O)C2(C)C (centres undefined)	5.0	-5.3%	0.7	-45.6	3.2
COc1cc(OC)c(NS(=O)(=O)c2coc(C(N)=O)c2)cc1Cl	-7.5	-6.2%	4.7	-45.3	1.0	Arbovirus anti repeat=2.7
N#CC1=C(SCC(N)=O)NC2=C(C(=O)c3ccccc32)C1c1ccc(Cl)cc1 (centres undefined)	1.7	-1.1%	-2.4	-14.9	-0.6
COc1ccccc1NC(=O)Nc1ccnn1C1CCN(C(=O)c2cscn2)CC1	0.7	nt	nt	nt	-1.4
CCOC(=O)c1[nH]ncc1CN1CCCC(C(=O)c2ccc(SC)cc2)C1 (centres undefined)	0.6	0.7%	2.6	nt	1.3
CCn1c(SCc2nc(-c3ccccc3)no2)nnc1-c1ccco1	-21.2	-0.6%	-3.1	-12.1	-3.6
Cc1ccccc1OCCC(=O)OCC(=O)Nc1c(F)cccc1F	7.0	nt	nt	nt	-1.6
CCOc1ccc(NC(=O)CNC(=O)c2ccco2)cc1	-9.2	nt	nt	nt	-1.6
Cc1ccccc1C(=O)Nc1nnc(-c2ccncc2)o1	86.1	1.0%	-1.6	nt	-0.3
COC(=O)COc1ccc(S(=O)(=O)N2CCN(c3ccc(OC)cc3)CC2)cc1	31.0	nt	-1.5	nt	-2.3
COc1cc(C(=O)N/N=C/c2ccc(OC)c(CN3CCN(c4ccc(F)cc4)CC3)c2)ccc1O	-9.5	3.6%	4.1	nt	0.8
CCCCCCN1CC(O)=C(c2ccccc2)C1=N	78.5	4.9%	7.3	-17.9	-13.9
COc1cccc(N/C=C(\C#N)c2ccc(OCCCF)cc2)c1	12.9	-6.2%	-6.4	-6.5	-1.9
CCC(=O)N1CCc2cc(S(=O)(=O)NC(C(=O)N3CCc4ccccc4C3)C(C)C)ccc21 (centres undefined)	1.6	-1.4%	-2.2	-39.3	nt
CN(C)CCCNC(NC(=O)/C=C/c1ccccc1)C(Cl)(Cl)Cl (centres undefined)	-2.6	-1.7%	nt	nt	-4.3
O=C(CN1CCCC1)Nc1cc(C(F)(F)F)cc(C(F)(F)F)c1	-12.6	4.2%	nt	nt	-1.3
COc1ccc(CCCc2n[nH]c(=S)o2)c(C)c1	-5.7	0.4%	-2.0	nt	0.6
COc1ccc(CCNC(=O)[C@@H](NC(=O)N2CC(=O)Nc3ccccc32)C(C)C)cc1OC	-3.2	nt	nt	nt	-1.3
Continuation.
SMILES	Mtb bLac sens	Mtb growth	Arbovirus anti	YopH inh	RecA intein inh	others
C=CCNC(=O)CN1CCC(O)(c2ccccc2)CC1	-7.7	-1.0%	9.7	-22.7	-1.8
Cc1cccc(NS(=O)(=O)c2ccc(C(=O)NCC3CCCO3)cc2)c1C (centres undefined)	-7.7	nt	nt	nt	1.1
O=C(CNC(=O)c1ccncc1)N/N=C/c1cc(Br)ccc1O	1.1	-8.6%	0.0	-31.1	-3.9
COc1ccccc1NC(=O)Nc1nc(CC(=O)N2CCN(c3ccccc3OC)CC2)cs1	4.9	nt	nt	nt	4.9
CCCCCCNCC(=O)N1CCC(Cc2ccccc2)CC1	5.9	nt	nt	nt	0.6
O=C(CSc1nccn1Cc1ccc(F)cc1)Nc1ccc(F)cc1F	-6.9	nt	nt	nt	4.1
O=S(=O)(c1ccc(F)cc1)N1CCN(c2nc(-c3ccc(F)cc3)cs2)CC1	5.5	12.8%	10.2	-22.2	2.6
CCC(=O)NCc1csc(-c2cccs2)n1	-3.8	-5.9%	nt	nt	-1.7
COc1ccc(Cn2nnnc2C(c2cccs2)N2CCN(c3ccccc3)CC2)cc1 (centres undefined)	4.9	0.0%	-2.0	14.1	11.3
COc1ccc(-c2cc(C(F)(F)F)nc(SCC(=O)NCc3cccs3)n2)cc1	-6.2	-5.8%	-5.1	-11.3	-2.7

Four compounds picked at random from the list so far:
SMILES	Mtb bLac sens	Mtb growth	Arbovirus anti	YopH inh	RecA intein inh	others
COc1cc(C(=O)N/N=C/c2ccc(OC)c(CN3CCN(c4ccc(F)cc4)CC3)c2)ccc1O	-9.5	3.6%	4.1	nt	0.8
CN(C)CCCNC(NC(=O)/C=C/c1ccccc1)C(Cl)(Cl)Cl (centres undefined)	-2.6	-1.7%	nt	nt	-4.3
NS(=O)(=O)c1ccc(NC(=O)COC(=O)CCc2ccc(S(=O)(=O)N3CCOCC3)cc2)cc1	-6.1	-6.7%	nt	nt	2.4
Nc1nnc(SCC(=O)NC2CCCC2)s1	14.7	nt	nt	nt	-0.2

(listing goes on)
SMILES	Mtb bLac sens	Mtb growth	Arbovirus anti	YopH inh	RecA intein inh	others
COc1cc(S(=O)(=O)N2CCCCC2)ccc1NC(=O)/C=C/c1ccccc1	-5.8	4.6%	-7.4	-0.4	3.3
O=C(CC(=O)N/N=C\c1ccccc1[N+](=O)[O-])NCCc1ccccc1	0.3	nt	nt	nt	-0.2
Cc1ccc(C)c(S(=O)(=O)Nc2ccccc2C(=O)Nc2ccccc2N2CCOCC2)c1	-5.4	1.5%	-7.4	-8.5	6.3
COc1ccccc1NC(=S)NNC(=O)c1cc(C)nn1C	-0.7	-9.1%	5.2	-8.0	-0.1
CCNC(=S)N=Nc1c(O)[nH]c2ccc(C(C)C)cc12	73.4	?	-19.6	-9.0	14.8
CCc1ccc(NC(=S)N(Cc2ccc(Cl)cc2)Cc2ccc(C(=O)O)cc2)cc1	2.4	1.6%	-6.1	nt	7.3
CCOC(=O)CNC(=S)N1CC2C[C@@H](C1)Cn1c2cccc1=O	-5.1	nt	nt	nt	1.4
O=[N+]([O-])c1nn(-c2ccc(Cl)cc2)n(O)c1=NCc1ccncc1	98.7	19.4%	-24.1	nt	-1.1
CCOc1cc(N2CCOCC2)c(OCC)cc1NC(=O)COC(=O)[C@H](Cc1c[nH]c2ccccc12)NC(C)=O	0.0	3.8%	4.3	-29.5	-2.6
COc1ccc2c(c1)-c1ccccc1S(=O)(=O)N2C	0.8	0.2%	6.1	-144.2	-0.6
COC(=O)C(N)Cc1ccc(O)c(O)c1 (centres undefined)	-7.1	-2.5%	-9.1	-5.4	nt
O=C(CSc1nncc2ccccc12)Nc1ccccc1	-9.3	nt	nt	nt	0.3
COC(=O)c1cccc(NC(=O)CCc2ccccc2)c1	5.6	5.3%	-5.8	-32.7	0.1
O=C(NCc1ccco1)c1cc(Cl)nc(Cl)c1	-2.0	nt	nt	nt	0.8
COc1ccc(OC)c(S(=O)(=O)NC2CCCCNC2=O)c1 (centres undefined)	5.6	nt	nt	nt	-3.5
COc1ccc([N+](=O)[O-])cc1NC(=O)CSc1nccc(C)n1	9.2	1.8%	-6.0	-11.9	0.7
COc1cc(OC)cc(C(=O)N2CCN(C(=O)c3cccnc3)CC2)c1	-2.9	nt	nt	nt	-1.5
Cc1cccn2c(NC(=O)c3cccs3)c(-c3ccccc3)nc12	-0.4	-3.0%	-5.9	-12.1	-2.9

Of the compounds above, these contain an aryl thioether with sulfur outside any ring:
SMILES	Mtb bLac sens	Mtb growth	Arbovirus anti	YopH inh	RecA intein inh	others
Nc1nnc(SCC(=O)NC2CCCC2)s1	14.7	nt	nt	nt	-0.2
CCN(C(=O)CSc1nnc2c3ccccc3n(CC)c2n1)C1CCS(=O)(=O)C1 (centres undefined)	-2.6	-2.5%	-13.0	10.0	-0.2
Cc1csc(SCC(=O)NC(=O)NC(C)(C)C)n1	-2.0	-4.9%	4.6	nt	3.7
CCOC(=O)c1[nH]ncc1CN1CCCC(C(=O)c2ccc(SC)cc2)C1 (centres undefined)	0.6	0.7%	2.6	nt	1.3
CCn1c(SCc2nc(-c3ccccc3)no2)nnc1-c1ccco1	-21.2	-0.6%	-3.1	-12.1	-3.6
O=C(CSc1nccn1Cc1ccc(F)cc1)Nc1ccc(F)cc1F	-6.9	nt	nt	nt	4.1
COc1ccc(-c2cc(C(F)(F)F)nc(SCC(=O)NCc3cccs3)n2)cc1	-6.2	-5.8%	-5.1	-11.3	-2.7
O=C(CSc1nncc2ccccc12)Nc1ccccc1	-9.3	nt	nt	nt	0.3
COc1ccc([N+](=O)[O-])cc1NC(=O)CSc1nccc(C)n1	9.2	1.8%	-6.0	-11.9	0.7

The list is partial; rates above refer to the full screens.
